Yeast UUG start – yeast start codon fidelity modulation | S. cerevisiae UUG-firefly luciferase reporter, luminescence/redox ratio | AID 602363 | 350,000 compounds, 0.13% hits | activity score, % at 18.7 µM;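 active means replicate mean at a twofold rise or more, about +100% in these data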;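 further: firefly luciferase made from a UUG start codon reports start codon fidelity; reporter light over untreated wells divided by growth signal over untreated wells; some hits fall short of that in this replicate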
Rce1 inh – blocks yeast Ras-converting enzyme. calls only. Q03530. yeast membranes, quenched prenylated peptide cleavage fluorescence. 290,000 compounds, 0.27% hits;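 active means fall in fluorescence gain of 50% or more versus controls, with final raw signal at or below 3038400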;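 further: plate controls were neutral control wells for no effect and wells lacking membranes for full effect; tested at 10 µM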
MT1-MMP act inh – blocks activation of human MT1-MMP; P50281; HT1080 RFP-PRO-GFP cells, GFP/RFP ratio fluorescence, overnight; percent of plate control window, DMSO zero; GFP/RFP ratio change, % at 20 µM; 360,000 compounds, 0.061% hits;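 active means GFP/RFP ratio change of at least 30% with cell ATP level not reduced by more than half and red fluorescence within 50% of control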; further: strong numbers were not always called active
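Assay system – RFP-PRO-GFP reporter HT1080 cells · Compound dosing – single dose of 20 µM compound, 1% DMSO final · Incubation – overnight compound exposure at 37 °C · Measure – GFP/RFP fluorescence ratio · Benchmarks – DMSO wells and RFP-L50D-GFP cells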
eIF4H FP inh – inhibitors of RNA binding by human eIF4H | Q15056 | eIF4H fluorescence polarization binding assay | inhibition, % at 35 µM | 290,000 compounds, 0.94% hits | AID 2012;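 active means 50% or more with normal probe brightness, or confirmed in later tests; about a fifth of its hits are not listed in these tables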;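 further: calls also rest on retests at 20 µM and on dose response follow-up; 0% = protein and probe with vehicle and 100% = probe without protein; strong numbers were not always called active; many hits fall short of the cut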
PABP polyA inh – PABP-poly(A) binding inhibition; 290,000 compounds, 1% hits; inhibition, % at 35 µM; PABP-poly(A) RNA binding, fluorescence polarization; AID 2014; P11940;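 active means 50% or more with normal probe brightness, or confirmed in later tests; about a fifth of its hits are not listed in these tables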;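 further: calls also rest on retests at 20 µM and on dose response follow-up; controls were probe without protein and protein plus probe with vehicle; some compounds called inactive have numbers as strong as hits; many hits fall short of the cut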
Target sequence (P11940 whole entry, looked up): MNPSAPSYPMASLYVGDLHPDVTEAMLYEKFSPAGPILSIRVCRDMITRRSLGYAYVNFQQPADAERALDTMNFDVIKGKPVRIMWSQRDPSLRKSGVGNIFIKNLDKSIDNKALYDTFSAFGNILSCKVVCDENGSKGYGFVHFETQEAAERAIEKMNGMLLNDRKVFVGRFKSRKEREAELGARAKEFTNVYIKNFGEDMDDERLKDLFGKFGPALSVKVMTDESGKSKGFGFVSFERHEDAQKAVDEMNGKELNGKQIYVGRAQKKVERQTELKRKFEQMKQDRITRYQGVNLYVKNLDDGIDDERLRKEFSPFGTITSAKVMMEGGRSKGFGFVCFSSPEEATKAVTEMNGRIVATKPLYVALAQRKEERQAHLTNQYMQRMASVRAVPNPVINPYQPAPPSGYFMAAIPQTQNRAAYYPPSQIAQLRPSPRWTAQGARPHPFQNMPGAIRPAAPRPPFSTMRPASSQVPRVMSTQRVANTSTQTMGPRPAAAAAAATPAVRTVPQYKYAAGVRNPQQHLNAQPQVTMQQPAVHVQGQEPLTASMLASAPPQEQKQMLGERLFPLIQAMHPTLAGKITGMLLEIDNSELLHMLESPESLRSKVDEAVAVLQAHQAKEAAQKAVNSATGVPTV
Env fusion inh – inhibitors of HIV Env-mediated cell fusion. HeLa-JRFL Env/CEM21 cell fusion, luciferase. inhibition, % at 12.3 µM. 360,000 compounds, 1.1% hits. AID 651610;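 active means mean replicate inhibition score of at least 50 and every replicate individually at or above 50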;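 further: 0% = plate neutral controls and 100% = maraviroc near 300 nM; one replicate is shown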
CSC inhib – blocks cancer stem cells; 300,000 compounds, 1.1% hits; cancer stem cell-like cells viability, luminescence; inhibition, % at 7.5 µM;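 active means mean at 75% or more and at least half the replicates too; tested in HMLE shEcad cells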;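 further: 0% = median of negative and 100% = median of positive control wells; the first replicate is given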
eIF4H FP inh retest – also measured in eIF4H FP inh; calls as there; inhibition, %; compound at 20 µM; confirmation average;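 mean of two retest wells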
PABP polyA inh retest – recorded beside PABP polyA inh, whose call it bears; inhibition, %; compound at 20 µM; confirmation repeats;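 mean of two retest wells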
MT1-MMP act inh RFP – recorded beside MT1-MMP act inh, whose call it bears; RFP signal change, %; measured here: RFP expression control read;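 0 = vehicle wells; hits needed this value within 50% of zero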
Active calls of the source: *; i = inactive; x = not tested or not shown.

SMILES	Yeast UUG start	Rce1 inh	MT1-MMP act inh	MT1-MMP act inh RFP	eIF4H FP inh	PABP polyA inh	Env fusion inh	CSC inhib	others
COCCOC(=O)c1sc2nc[nH]c(=O)c2c1C	x	i	4.6	6.3	65.4	1.9	0.9	0.0	eIF4H FP inh retest=1.2;PABP polyA inh retest=1.0
COc1ccc(-n2nc(C(=O)NCC(=O)NC3CCCCC3)c3ccccc3c2=O)c(OC)c1	-16.4	i	-1.2	2.2	1.8	15.3	9.9	8.2
N/N=C(\c1ccccc1)c1cc(Br)ccc1N	-10.1	i	0.4	-0.8	-2.5	9.9	3.2	31.8
O=C(Nc1ccccc1)c1ccc(S(=O)(=O)NCc2ccco2)cc1	-20.5	i	4.6	0.8	-9.0	12.1	x	0.2
Cc1ccc(/C(N)=N/OC(=O)c2cccc(F)c2)cc1	-15.8	i	-1.4	4.2	-5.4	-2.4	-143.0	3.7
CC(=O)Nc1ccc(C(=O)NN2C(=O)NC3(CCCCC3)C2=O)cc1	-9.5	i	-1.0	3.8	x	x	3.7	-5.4
Cc1ccc(OCC(=O)N/N=C/c2ccc3c(c2)OCO3)cc1C	x	i	3.0	1.2	-2.8	-8.7	9.0	x
COc1cccc(C(=O)NCC(=O)N/N=C/c2cccnc2)c1	-31.2	i	1.6	5.8	-4.0	-7.8	3.8	-0.2
COCCN(C(=O)CSc1nnc(Nc2ccc(C)cc2)s1)c1c(N)n(CC(C)C)c(=O)[nH]c1=O	x	i	7.9	7.4	-2.0	-2.2	6.2	-11.2
COc1ccc(C2C3=C(CC(C)(C)CC3=O)Nc3cc4c(cc32)OCO4)cc1 (stereo not given)	-14.9	i	-5.4	-7.5	-8.6	-1.5	x	x
CCCCN(C(=O)c1cccs1)c1c(N)n(Cc2ccccc2)c(=O)[nH]c1=O	-12.1	x	-0.5	-3.6	x	x	-17.4	-15.4
O=C(CSc1ncn[nH]1)Nc1ccccc1-c1ccccc1	-24.5	i	1.0	0.7	-11.4	-5.5	-38.6	6.3
COC(=O)c1cc(C(C)=O)n2ccccc12	-4.7	i	-1.7	0.2	-9.1	0.1	x	3.1
CCC(=O)c1ccc(OCC(=O)NC2(C#N)CCCCC2)cc1	x	i	-2.0	-0.1	3.6	-9.9	-6.4	8.2
COC(=O)CNS(=O)(=O)c1ccc(Cc2ccc(S(=O)(=O)NCC(=O)OC)cc2)cc1	-14.0	i	x	x	2.4	-2.6	x	-0.6
O=C(Nc1ccc(O)cc1)c1ccc2c(c1)C(=O)N(Cc1cccnc1)C2=O	-17.0	i	4.0	5.8	2.0	3.6	3.5	-8.3
COc1ccc(CN(CC2CCC(C(=O)O)CC2)C(=S)Nc2cccc(C)c2)cc1 (stereo not given)	x	i	0.3	1.5	10.4	-0.1	4.5	2.7
CC(NC(=O)COc1ccc(/C=N/NS(=O)(=O)c2ccccc2)cc1)c1ccccc1 (stereo not given)	x	i	7.1	-7.4	-7.7	-13.4	x	-8.9
O=C(Nc1ccc2c(c1)OCO2)C1CC(=O)N(c2ccccc2)C1 (stereo not given)	-13.8	i	-1.6	1.2	0.4	0.5	-12.0	-5.3
CCC(=O)OC1CSc2nc3ccccc3n2C1 (stereo not given)	-6.0	i	-0.3	4.0	2.0	8.8	-86.1	-0.7
Cc1occc1C(=O)N/N=C/C=C/c1ccc(N(C)C)cc1	-10.0	i	-18.7	1.3	47.2	-16.5	-108.1	1.4
CCc1nnc(NC(=O)CSc2nnc(-c3ccoc3C)n2CC(C)C)s1	-13.7	i	2.2	0.5	-2.3	-13.9	-42.8	8.4
CCOc1ccc(-n2c(SCC(=O)N3CCC(C(=O)O)CC3)nc3ccccc3c2=O)cc1	-5.8	i	2.7	2.2	-3.7	20.6	5.9	2.5
N#Cc1ccc(OCC(=O)NCCN2CCOCC2)cc1	-7.9	x	-3.1	-0.9	x	x	-9.1	x
CC(C)(C)c1ccc(OC2=CS(=O)(=O)c3ccccc32)cc1	1.1	i	-4.0	-15.1	-1.0	-8.1	-12.6	x

Molecules above that have a cyano group:
SMILES	Yeast UUG start	Rce1 inh	MT1-MMP act inh	MT1-MMP act inh RFP	eIF4H FP inh	PABP polyA inh	Env fusion inh	CSC inhib	others
CCC(=O)c1ccc(OCC(=O)NC2(C#N)CCCCC2)cc1	x	i	-2.0	-0.1	3.6	-9.9	-6.4	8.2
N#Cc1ccc(OCC(=O)NCCN2CCOCC2)cc1	-7.9	x	-3.1	-0.9	x	x	-9.1	x

Other compounds follow.
SMILES	Yeast UUG start	Rce1 inh	MT1-MMP act inh	MT1-MMP act inh RFP	eIF4H FP inh	PABP polyA inh	Env fusion inh	CSC inhib	others
COc1cc(C2C(C#N)=C(N)Oc3n[nH]c(-c4ccccn4)c32)cc(OC)c1OC (stereo not given)	-17.5	i	4.9	1.2	9.9	13.1	-76.9	0.0
c1ccc(Sc2ccccn2)cc1	-9.1	i	-1.2	5.8	x	x	1.0	-15.0
COC(=O)c1c(N)sc2c1CC(C)(C)OC2	-0.4	i	-2.9	-2.0	-8.6	5.5	3.0	-15.0
Cc1cccc(NC(=O)c2ncn3c2C(=O)NC[C@@H]3C)c1	-2.6	x	0.2	0.2	x	x	-1.8	x
Cn1c(-c2ccccc2)c(C#Cc2ccc(N)cc2)c2ccccc21	1.6	x	1.6	0.6	x	x	69.9*	47.8
CN1CCC(OC(=O)COc2ccc(Cl)cc2Cl)CC1	11.2	i	0.0	0.5	1.3	2.2	30.8	-0.3
CN1C2CCC1CC(NC(=O)CSc1ccc(C(C)(C)C)cc1)C2 (stereo not given)	x	i	2.0	-3.9	27.0	47.4	0.8	22.5
COc1ccc(CCNC(=O)COC(=O)c2cc(S(=O)(=O)NCc3ccccc3)ccc2O)cc1OC	x	i	2.0	-3.3	-0.1	14.0	10.4	-6.4
Cc1cc(NC(=O)Cc2cc(F)cc(F)c2)no1	-5.7	i	0.3	-0.9	5.6	2.8	7.9	-6.6
Cc1cccc(Cn2c(N(C)CCO)nc3c2c(=O)[nH]c(=O)n3C)c1	-10.6	i	3.6	5.2	-5.0	-3.9	-12.9	x
COc1ccc(CCNS(=O)(=O)c2ccc(-n3cnnn3)c(OC)c2)cc1OC	-12.8	i	-0.5	1.6	-3.2	3.1	13.7	0.9
Cc1[nH]n(-c2ccc(Br)cc2)c(=O)c1/C=N/NC(=O)c1ccccc1	-19.2	i	2.7	-21.9	3.1	4.8	51.1	80.1*
Cc1nn2c(SCC(=O)c3cccs3)cc(C(C)(C)C)nc2c1-c1ccccc1	x	i	-2.8	-6.0	6.2	-4.7	-8.1	36.9
CC(C)N1CCc2c(sc(NC(=O)C3CCCCC3)c2C(N)=O)C1	-3.1	i	-9.5	-1.9	-2.5	1.5	8.8	13.9
CCOc1ccc(-n2c(=S)sc3c(=O)[nH]c(SCC(=O)NCC4CCCO4)nc32)cc1 (stereo not given)	-17.2	i	2.3	4.7	-7.6	4.9	x	-3.8
CC(=O)OCC(=O)Nc1ccc(C(C)=O)cc1	-24.9	i	-2.4	3.4	-7.8	1.8	-22.2	x
CC(C)NC(=O)COC(=O)c1cc(F)c(F)cc1Cl	-16.9	i	-3.4	0.2	-8.6	-2.8	4.6	-13.4
CCOC(=O)Cc1nnc2c(Nc3ccc(C)cc3)nc3nonc3n12	-4.6	i	1.9	1.6	7.6	4.9	x	-6.5
CCC(C)NC(=S)NNC(=O)c1ccc(C(C)(C)C)cc1 (stereo not given)	x	i	8.2	8.6	20.9	-23.7	x	-9.7
O=C(Cn1ccc([N+](=O)[O-])n1)NCc1ccco1	-6.8	i	-3.6	3.5	-6.6	4.8	x	-4.0
COc1ccc(C2CC(O)(c3ccccc3)Oc3c(C)ccc(C)c32)cc1 (stereo not given)	-23.8	i	-3.6	-2.0	-3.6	-3.0	0.4	x
O=C(COc1ccc(Cl)cc1)N1N=C(c2cccs2)CC1c1ccco1 (stereo not given)	-19.1	x	-2.7	1.9	x	x	-29.1	x
COc1cccc(CNc2nc3cc(-c4csc5ccccc45)sc3c(=O)n2C)c1	-23.0	x	4.1	1.1	x	x	15.3	x
CCOC(=O)C1CCCN(C/C(O)=C(\C#N)c2nc(-c3ccccc3)cs2)C1 (stereo not given)	-33.2	i	-14.9	5.4	-7.0	1.0	x	17.8
CCOC(=O)c1cn(Cc2ccc(Cl)cc2Cl)c2cc(C)nn2c1=O	1.8	i	5.6	-3.7	-7.7	-4.6	1.0	5.2

By substructure, the entries above containing fluorine
SMILES	Yeast UUG start	Rce1 inh	MT1-MMP act inh	MT1-MMP act inh RFP	eIF4H FP inh	PABP polyA inh	Env fusion inh	CSC inhib	others
Cc1ccc(/C(N)=N/OC(=O)c2cccc(F)c2)cc1	-15.8	i	-1.4	4.2	-5.4	-2.4	-143.0	3.7
Cc1cc(NC(=O)Cc2cc(F)cc(F)c2)no1	-5.7	i	0.3	-0.9	5.6	2.8	7.9	-6.6
CC(C)NC(=O)COC(=O)c1cc(F)c(F)cc1Cl	-16.9	i	-3.4	0.2	-8.6	-2.8	4.6	-13.4

Additional records
SMILES	Yeast UUG start	Rce1 inh	MT1-MMP act inh	MT1-MMP act inh RFP	eIF4H FP inh	PABP polyA inh	Env fusion inh	CSC inhib	others
COc1cc(-c2nnc(-c3cccnc3)o2)cc(OC)c1OC	x	i	2.1	1.3	1.4	-14.8	x	-8.2
Cc1ccc[n+](CC(=O)c2cc3ccccc3oc2=O)c1	x	i	-1.5	9.7	-1.7	10.6	x	6.7
COCCn1cc(C(=S)N2CCCCC2)c2ccccc21	x	i	-1.6	1.5	2.6	5.8	17.4	-5.5
Cc1ccn2c(Cc3ccccc3)c(-c3ccc(F)cc3)nc2c1	19.9	x	3.6	-5.2	x	x	-4.8	x
COc1ccc(NC(=O)CCS(=O)(=O)c2ccccc2)c(OC)c1	-25.6	i	2.7	-1.3	6.1	-2.7	-58.4	-5.2
COc1ccc(NC(=O)CSc2nccn2Cc2ccco2)cc1OC	2.0	i	0.1	-3.3	-0.6	-1.8	-300.9	7.2
CCOC(=O)C1CCN(C(=O)Cc2ccc(-c3ccccc3)cc2)CC1	1.6	i	-2.7	0.1	-7.8	4.9	6.1	3.4
O=C(NCCCn1ccnc1)/C(=C\c1cccs1)NC(=O)c1ccccc1	-14.7	i	0.3	7.0	0.7	-5.9	0.5	-2.6
O=C(CSc1nc2ccccc2c(=O)n1CC1CCCO1)NCc1ccc2c(c1)OCO2 (stereo not given)	x	i	-4.9	0.3	-0.7	4.8	1.0	-3.4
CCN1C(=O)[C@H]2[C@@H](c3ccc(-c4ccccc4)c(OC)c3)N[C@@](Cc3ccccc3)(C(=O)OC)[C@H]2C1=O	-8.0	i	5.3	-0.1	x	x	-9.3	4.9
CC(C)CN(C(=O)CSc1nncs1)c1c(N)n(CC(C)C)c(=O)[nH]c1=O	-14.8	i	-1.2	3.2	3.9	6.4	x	x
CCOc1ccc(CNC2CCCc3ccccc32)cc1 (stereo not given)	x	i	1.5	3.2	5.9	38.4	1.3	-3.3
CCOc1cc(NS(C)(=O)=O)c(OCC)cc1NC(=O)c1cccs1	-12.4	i	6.6	3.4	3.8	-12.1	-3.2	-8.0
O=C(Cc1ccccc1)Nc1ccccc1CO	-17.3	x	5.6	0.3	-2.6	-7.6	-29.8	-9.7
O=C(Cn1c(CN2CCCCC2)nc2ccccc2c1=O)NCc1ccco1	-7.8	i	-0.7	1.6	-5.0	-4.5	x	11.6
COc1cccc(-c2nn(-c3ccccc3)cc2/C=C(/NC(=O)c2ccccc2)C(=O)O)c1	-22.6	i	-0.3	-3.2	-12.4	-3.3	-9.3	-2.4
CN1CCC(C2(O)c3ccccc3CSc3sccc32)CC1 (stereo not given)	-17.9	x	-19.0	-2.2	-11.4	-5.1	-138.1	6.3
CC(C)(CNC(=O)c1sc2cc(F)ccc2c1Cl)N1CCOCC1	-11.4	x	6.0	2.7	8.3	5.3	3.7	19.6
Nc1c(C(=O)c2ccc(Br)cc2)oc2ccccc12	-6.8	i	-6.0	3.5	1.8	77.7	-25.2	12.9	eIF4H FP inh retest=3.1;PABP polyA inh retest=7.0
